YopH PTP inh: YopH tyrosine phosphatase inhibitors, primary screen, biochemical, fluorescence Ex485/Em525 | YopH tyrosine phosphatase [Yersinia enterocolitica] | inhibition, %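 (about 10 µM by stock and volumes)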 | actives 0.16% (n = 140,000) | AID 898, 2007;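 active means inhibition of 50% or more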;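 further: controls were vehicle for no effect and minimum signal wells for full effect; inactives centre near -20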
Mtb bLac sens: beta-lactam sensitization of Mtb H37Rv, H37Rv; AID 434955, 2010; M. tuberculosis H37Rv growth with meropenem, percent inhibition; hits of this screen are not shown here; inhibition, % at 25 µM; actives 0.27% (n = 330,000);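 active means about 74% or more and at least 40 points above the plate without the antibiotic, then above 30% in a dose series; inconclusive means first-round hits that could not be retested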;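 further: growth measured after seven days incubation then overnight dye step; 0% = bacteria only wells and 100% = bacteria with antibiotic; twin plates without the antibiotic show which effects depend on it; some results filed as inactive read as strong as hits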
Mtb growth: M. tuberculosis H37Rv growth inhibitors, H37Rv strain (AID 1626) | M. tuberculosis H37Rv growth inhibition; higher % means a stronger effect | inhibition, % at 10 µM, or IC50 in µM where a hit was titrated | actives 0.95% (n = 220,000);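 active means confirmed in a dose series; inconclusive means inhibition above 80% but not taken into the dose series; inactive means below 80% or under 30% at every dose of the series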;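 further: bacteria incubated seven days before Alamar blue readout; 0% = bacteria only wells and 100% = bacteria with antibiotic wells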
Arbovirus anti: antivirals against arbovirus infection, primary screen, cell-based, full library, 10K replicate subset. arbovirus infection cell-based antiviral screen. inhibition, % at 10 µM. actives 0.37% (n = 200,000). AID 1251, 2008;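 active means inhibition from about 30%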;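 further: bluetongue infection of BSR cells; cell survival read as ATP light after 72 h; 0% = infected wells without compound and 100% = uninfected wells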
RecA splice inh: Mtb RecA intein splicing inhibitors, primary screen, biochemical, fluorescence, HTS; Protein RecA (Mycobacterium tuberculosis (strain ATCC 25618 / H37Rv)), P9WHJ3; cell-free RecA intein splicing; inhibition, %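 (about 9 µM by stock and volumes)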; actives 0.75% (n = 290,000); AID 2221, 2009; in the data active means inhibition above about 30%; inconclusive means no clear call, values can overlap the other calls;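 further: 0% = vehicle wells and 100% = reference inhibitor control wells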
Target sequence (P9WHJ3 whole entry, looked up, canonical isoform): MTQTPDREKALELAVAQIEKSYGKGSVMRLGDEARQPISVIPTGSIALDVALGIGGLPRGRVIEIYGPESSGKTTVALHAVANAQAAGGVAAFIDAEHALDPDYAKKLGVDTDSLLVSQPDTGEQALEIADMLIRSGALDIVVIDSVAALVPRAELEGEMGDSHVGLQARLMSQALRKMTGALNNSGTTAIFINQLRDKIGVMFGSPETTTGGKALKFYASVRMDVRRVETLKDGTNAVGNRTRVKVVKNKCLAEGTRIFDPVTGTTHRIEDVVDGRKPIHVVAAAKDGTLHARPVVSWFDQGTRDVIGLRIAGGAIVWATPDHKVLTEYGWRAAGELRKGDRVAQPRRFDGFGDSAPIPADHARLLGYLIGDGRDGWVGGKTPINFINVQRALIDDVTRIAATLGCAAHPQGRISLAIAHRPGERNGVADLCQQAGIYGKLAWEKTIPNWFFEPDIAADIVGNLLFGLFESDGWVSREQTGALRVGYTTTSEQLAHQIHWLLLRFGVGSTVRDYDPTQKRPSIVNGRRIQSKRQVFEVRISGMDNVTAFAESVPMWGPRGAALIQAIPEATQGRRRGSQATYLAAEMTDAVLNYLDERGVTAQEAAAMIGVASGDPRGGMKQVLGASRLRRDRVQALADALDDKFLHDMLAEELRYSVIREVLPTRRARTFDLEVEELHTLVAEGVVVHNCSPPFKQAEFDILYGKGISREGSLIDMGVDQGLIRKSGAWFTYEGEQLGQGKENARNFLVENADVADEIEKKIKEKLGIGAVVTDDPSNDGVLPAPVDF
Arbovirus anti repeat: recorded beside Arbovirus anti, whose call it bears; inhibition, %; measured here: 10K subset replicate screen; many hits read low in the repeat;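 first of two repeat runs on a subset; 0% = infected and 100% = uninfected wells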
Active calls of the source: *; ? = inconclusive; · = no result given.

SMILES	YopH PTP inh	Mtb bLac sens	Mtb growth	Arbovirus anti	RecA splice inh	others
Cc1ccc(C(=O)N/C(=C\c2ccc(-c3cccc([N+](=O)[O-])c3)o2)C(=O)NCCCN2CCOCC2)cc1	·	9	·	·	-2.2
Cc1oc(/N=C/c2ccc(Cl)cc2)c(C#N)c1C	-55	-8	-7%	2	0.8
CN(CC(=O)NCCN1CCCCCC1)S(=O)(=O)c1cccc2nsnc12	-47	-1	-7%	-8	0.0
CC1CCN(C2=NC(=O)/C(=C/c3ccccc3F)S2)CC1	·	9	·	·	-0.8
COc1cccc(C(=O)Nc2ccc3nc(N4CCOCC4)cc(C)c3c2)c1	7	-5	31%	-14	2.4	Arbovirus anti repeat=-23
Cc1ccnc(NC(=O)c2ccc(NS(=O)(=O)/C=C/c3ccccc3)cc2)c1	·	1	·	·	6.6
CC(=O)Nc1cccc(-n2nnc(SCC(=O)Nc3ccc(F)c(Cl)c3)n2)c1	·	85	-2%	·	2.5
Cc1ccc(NC(=O)COC(=O)c2ccc3c(c2)OCCO3)cc1S(=O)(=O)N1CCOCC1	·	-1	3%	4	0.6
Cc1cccc(Nc2nc(N3CCN(C)CC3)nc(N)c2[N+](=O)[O-])c1	-34	9	16%	-8	-1.1
Cc1cc(Br)ccc1SCC(=O)OCC(=O)N1CCN(C(=O)c2ccco2)CC1	-45	-6	-3%	-1	3.2
COc1ccc(CC(=O)NCc2n[nH]c(=S)n2C)cc1	·	4	-3%	-5	-1.2
O=C(Nn1cnnc1)c1ccc(Br)s1	-3	-8	-1%	3	1.8
CCN(CC)S(=O)(=O)c1ccc(NC(=O)COC(=O)c2ccc(-n3nc(C)cc3C)cc2)cc1	-4	77	4%	9	·
C#CCOCCOCCOCCNc1nc(N2CCN(C(=O)[C@H]([C@@H](C)O)n3cc(CCCCN)nn3)CC2)nc(N2CCN(C(=O)[C@H](Cc3ccc(O)cc3)n3cc(CCO)nn3)CC2)n1	-28	-3	-7%	2	-1.4
O=C(CCN1C(=O)/C(=C/c2cccs2)SC1=S)NNC(=O)c1cccc(O)c1	·	-7	-3%	-18	-2.7
O=C(C1=C(O)C(=O)N(CCN2CCOCC2)C1c1cccnc1)c1cc2ccccc2o1 (stereo not given)	-3	18	5%	8	·
COc1ccc(-c2nc(CS(=O)(=O)CC(=O)NCCc3ccc(C)cc3)c(C)o2)cc1	·	-5	·	·	-2.7
O=C(C1CCOCC1)N1CCCC(N2CCN(c3cccc(Cl)c3)CC2)C1 (stereo not given)	·	-11	·	·	-3.2
Fc1ccc(NC(=S)N2CCN(C/C=C/c3ccccc3)CC2)c(F)c1	·	5	-1%	8	0.3
COCc1[nH]nc2c1C1(CCC3(CC1)OCCO3)C(C#N)=C(N)O2	-25	-10	-5%	2	·
CCOC(=O)c1c(N)sc(C(=O)N2CCCC(C(N)=O)C2)c1C (stereo not given)	-10	-1	-5%	·	2.8
CCn1c(SCC(=O)O)nnc1-c1cc2c(C)nn(-c3ccccc3)c2s1	-25	-9	-1%	3	1.0
Cc1c(N=CN2CCOCC2)c(=O)n(C)c(=O)n1C	-23	4	-2%	1	2.6
CC12CCC(=O)C=C1CCC1C2C(=O)CC2(C)C1CC[C@]2(O)C(=O)CO (stereo not given in full)	·	4	·	·	0.2
O=C(Nc1ccc(F)cc1)NC1(C(=O)NCc2ccco2)CCCCC1	-56	-5	-4%	-5	-1.6
Cc1ccc(C2(C(F)(F)F)NC(=O)N3C(=C2C#N)Nc2ccccc23)cc1 (stereo not given)	7	-18	-3%	-5	-4.4
O=[N+]([O-])c1ccc(-c2nnc(-c3ccccc3)c(NCCCO)n2)cc1	-29	1	0%	15	4.1
O=C(Nc1nc2ccc(SC(F)F)cc2s1)c1ccc2c(c1)S(=O)(=O)c1ccccc1C2=O	-6	7	15%	0	0.2
CCOC(=O)CC(=O)Nc1cc(Cl)ccc1O	-48	33	4%	3	1.1
OCC[C@@H]1C[C@@H](O)[C@H](O)[C@]2(OCc3ccccc32)O1	·	-1	·	·	-1.2
CCOC(=O)C1CCCN(Cc2sccc2C)C1 (stereo not given)	-30	15	-3%	12	0.5
Cc1nn(Cc2ccccc2Cl)c2sc(C(=O)NCCCn3ccnc3)cc12	-31	97	17%	-14	0.3
COc1ccc(CN2C3CCC2CC(NC(=O)c2cccc(F)c2)C3)cc1 (stereo not given)	·	-26	·	·	1.8
CCc1ccc(-n2c(O)c(/C=N/NC(=O)c3ccncc3)c(=O)[nH]c2=O)cc1	-34	96	?	-2	1.4
Nc1nc(-c2ccccc2)[nH]c(=O)c1N=O	·	57	7%	·	-5.4
CCc1nc2cc([N+](=O)[O-])c([N+](=O)[O-])cc2[nH]1	-16	3	-3%	2	-2.4
CCCC(C)NS(=O)(=O)c1ccccc1 (stereo not given)	-54	-7	-2%	2	·
COc1ccc(C2NC(=S)NC3=C2CCc2cc(OC)ccc23)cc1 (stereo not given)	-21	21	2%	6	12
C=CCSc1nnc(NC(=O)c2cccc(S(=O)(=O)N(C)c3ccccc3)c2)s1	-7	6	1%	18	0.9
C/C(=N/n1cnnc1)c1cccnc1	-45	0	1%	0	-2.3
Cc1cccc(OCC(=O)Nc2ccccc2C(=O)N2CCOCC2)c1	14	-6	-1%	-5	-0.5
O=C(N/N=C/c1c[nH]c2ccccc12)c1ccccc1	·	-2	·	·	-3.2
COc1ccc(CCNC(=O)COC(=O)CCC(=O)c2ccc(F)cc2)cc1	·	-2	8%	2	2.8
COc1cc2nc(SCc3ccc(Cl)cc3Cl)n(Cc3cccs3)c(=N)c2cc1OC	-22	6	12%	-24	-1.5
CCCCN(C(=O)c1cc(=O)[nH]c2ccccc12)c1c(N)n(CCCC)c(=O)[nH]c1=O	·	-2	·	·	0.1
CCOC(=O)c1cc(=O)[nH]c2ccccc12	·	0	-4%	-2	-5.1
COc1ccc(Sc2nc(-c3ccccc3)ncc2C(=O)O)cc1	·	-3	11%	7	-1.2
COC(=O)c1c(C)noc1-c1ccc(Cl)cc1	·	-20	1%	·	-0.6
Cn1cnnc1SCC(=O)Nc1ccc2nc(SCc3cccc4ccccc34)sc2c1	-20	4	-1%	-10	2.7
CC1(C)CC(=O)C=C(OC(=O)c2ccc(Cl)cc2)C1	-10	5	-11%	8	-0.6
CCOC(=O)c1oc2nc3c(cc2c1N)COC(C)(C)C3	-26	7	-6%	12	-1.8
CCOC(=O)c1c(NC(NC(=O)C(C)C)C(Cl)(Cl)Cl)sc2c1CCC2 (stereo not given)	9	-4	0%	-8	6.2
CC(NC(=O)CSc1nc2ccccc2c(=O)[nH]1)c1ccccc1 (stereo not given)	-21	·	·	-10	-5.1
COC(=O)c1cc(NC2c3ccccc3C(=O)N2CCN2CCOCC2)cc(C(=O)OC)c1 (stereo not given)	-44	2	0%	12	0.9
COc1cccc(CN2CCCC(C(=O)c3ccccc3SC)C2)c1O (stereo not given)	·	-2	-3%	·	1.1
COc1cc(OC)cc(-n2nnnc2SCC(=O)N2CCCC2)c1	-41	-3	-12%	5	1.2
Cc1cccc(N2CCN(C(=O)c3cn(C)c(=O)c4c3c3ccccc3n4C)CC2)c1C	-55	100	·	-31	8.6
O=C(c1cc(-c2ccccc2)nc2ccccc12)N1CCN(c2ccccc2O)CC1	·	95	·	·	7.2
COc1ccc(N2CCN(C(=O)c3cc4c(s3)-c3ccccc3S(=O)(=O)C4)CC2)cc1	·	-2	0%	·	-8.6
Cc1cc(-c2nnc(SCC(=O)Nc3ccccc3Cl)n2C)no1	·	-2	·	·	-5.1

(list continues)
SMILES	YopH PTP inh	Mtb bLac sens	Mtb growth	Arbovirus anti	RecA splice inh	others
CCC(C)NC(=O)CSc1n[nH]c(-c2cc(Cl)ccc2OC)n1 (stereo not given)	·	-3	-6%	-6	3.6
O=C(COc1ccc(Cl)cc1)Nc1nnc(C2=COCCO2)o1	·	-4	·	9	-6.2
COc1cccc(-c2csc(NC(C)=O)n2)c1	-10	5	1%	-5	-1.7
CC1CCCN(C(=O)c2cccc(S(=O)(=O)Nc3cc(C(F)(F)F)ccc3Cl)c2)C1 (stereo not given)	-17	-7	0%	42*	5.3
CCOc1ccccc1NC(=S)N(Cc1cc2ccc(C)cc2[nH]c1=O)CC1CCCN1CC (stereo not given)	-1	4	11%	0	4.5
Nc1c(C(=O)c2ccc(Cl)cc2)oc2ccccc12	4	1	3%	-1	1.9
CCS(=O)(=O)N1CCN(C(=O)c2cccs2)CC1	-25	-4	-10%	1	0.5	Arbovirus anti repeat=3
O=S(=O)(c1cccc(-c2nnc(SCc3ccc(Cl)cc3)o2)c1)N1CCCCC1	-4	-10	-3%	-1	-1.5
COc1ccccc1/C=C/CN1CCC(Oc2ccc(C(=O)N3CCCC3)cc2)CC1	·	-6	·	·	-1.8
COc1ccc2nc(NC(=O)C(NS(=O)(=O)c3cccs3)C(C)C)sc2c1 (stereo not given)	-5	-9	-5%	-4	-0.2
COC(=O)N1C(=O)[C@@](c2ccccc2)(C2CCCC2)N1C(=O)OC	·	4	·	·	7.4
CCC(C)[C@H](NC(=O)C1CC(=O)N(c2ccc(OC)cc2)C1)C(=O)NC1CCCC1 (stereo not given in full)	·	-3	·	·	-1.3
CCOc1ccc([N+](=O)[O-])c(N)c1	-31	0	-10%	-4	3.1

Arranged by molecular weight (falling): some entries from above
SMILES	YopH PTP inh	Mtb bLac sens	Mtb growth	Arbovirus anti	RecA splice inh	others
C=CCSc1nnc(NC(=O)c2cccc(S(=O)(=O)N(C)c3ccccc3)c2)s1	-7	6	1%	18	0.9
CCOC(=O)c1c(NC(NC(=O)C(C)C)C(Cl)(Cl)Cl)sc2c1CCC2 (stereo not given)	9	-4	0%	-8	6.2
CCc1nc2cc([N+](=O)[O-])c([N+](=O)[O-])cc2[nH]1	-16	3	-3%	2	-2.4

In the list so far, eleven have two or more sulfur atoms.
SMILES	YopH PTP inh	Mtb bLac sens	Mtb growth	Arbovirus anti	RecA splice inh	others
CN(CC(=O)NCCN1CCCCCC1)S(=O)(=O)c1cccc2nsnc12	-47	-1	-7%	-8	0.0
O=C(CCN1C(=O)/C(=C/c2cccs2)SC1=S)NNC(=O)c1cccc(O)c1	·	-7	-3%	-18	-2.7
CCn1c(SCC(=O)O)nnc1-c1cc2c(C)nn(-c3ccccc3)c2s1	-25	-9	-1%	3	1.0
O=C(Nc1nc2ccc(SC(F)F)cc2s1)c1ccc2c(c1)S(=O)(=O)c1ccccc1C2=O	-6	7	15%	0	0.2
C=CCSc1nnc(NC(=O)c2cccc(S(=O)(=O)N(C)c3ccccc3)c2)s1	-7	6	1%	18	0.9
COc1cc2nc(SCc3ccc(Cl)cc3Cl)n(Cc3cccs3)c(=N)c2cc1OC	-22	6	12%	-24	-1.5
Cn1cnnc1SCC(=O)Nc1ccc2nc(SCc3cccc4ccccc34)sc2c1	-20	4	-1%	-10	2.7
COc1ccc(N2CCN(C(=O)c3cc4c(s3)-c3ccccc3S(=O)(=O)C4)CC2)cc1	·	-2	0%	·	-8.6
CCS(=O)(=O)N1CCN(C(=O)c2cccs2)CC1	-25	-4	-10%	1	0.5	Arbovirus anti repeat=3
O=S(=O)(c1cccc(-c2nnc(SCc3ccc(Cl)cc3)o2)c1)N1CCCCC1	-4	-10	-3%	-1	-1.5
COc1ccc2nc(NC(=O)C(NS(=O)(=O)c3cccs3)C(C)C)sc2c1 (stereo not given)	-5	-9	-5%	-4	-0.2

From PubChem

The list is partial (hit frequency here may not be typical).
